Measles inh: inhibitors of measles virus growth in infected cells. infected Vero cells, GFP fluorescence, 64 h; active compounds read low. z-score (test concentration not listed). 33,000 compounds, 0.1% hits;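 active = z-score under -3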;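 also: score is relative to mean and SD of the compound wells of a plate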
The depositor's hits bear a star. Not all compounds are listed, so the mix of outcomes need not match the whole.

SMILES	Measles inh
O=C(COc1ccc(Br)cc1)Nc1ccc(I)cc1	-0.57
CC12CCC(c3nnc(SCC(=O)Nc4cccc(C(F)(F)F)c4)nc31)C2(C)C (configuration not stated)	0.34
COc1cc(OC)cc(-n2c(=O)c3ccccc3n(Cc3cccc(F)c3)c2=O)c1	0.12
Cc1ccccc1Nc1cc(N2CCCC2)c2noc3c2c1C(=O)c1ccccc1-3	0.4
Cc1ccc(-n2ncc3c(Nc4ccc(Br)cc4)ncnc32)cc1	0.4
Cc1ccc(C)c(NC(=O)CCN2CCCCCC2)c1	-0.61
Cc1ccc(S(=O)(=O)Nc2ccc(NC(=O)c3ccccc3)cc2)cc1	-0.19
COCCn1c(SCc2ccccc2Cl)nc2c1c(=O)[nH]c(=O)n2C	0.39
CCOC(=O)c1ccc2c(c1)C1C=CCC1C(c1ccccc1C(F)(F)F)N2 (configuration not stated)	1.9
O=C(Nc1cnn(Cc2ccc(F)cc2)c1)c1cc(-c2ccc(F)cc2)on1	-0.12
CCC(O)(CC)C12CC3CC(CC(C3)C1)C2	-1.5
Cn1c(SCC(=O)Nc2nc3ccccc3s2)nc2c([nH]c3ccccc32)c1=O	0.81
CCCOC(=O)c1cccc(NC(=O)COc2c(C)cccc2C)c1	-0.48
Cc1ccc(C)c(N2CCN(C(=O)C3CCN(S(=O)(=O)c4c(C)noc4C)CC3)CC2)c1	0.73
c1csc(-c2nnc(NC3CCCCC3)c3ccccc23)c1	-0.02

SMILES	Measles inh
COc1ccc(C(=O)N2CCc3cc(OC)c(OC)cc3C2COc2cccc(C(F)(F)F)c2)cc1OC (configuration not stated)	0.14
COc1cc(-c2nnc(-c3cccs3)o2)cc(OC)c1OC	1.4
CNc1oc(-c2ccc(OC)cc2)nc1S(=O)(=O)c1ccccc1	0.46
COc1cccc2cc(C(=O)NC3CC(C)(C)NC(C)(C)C3)c(=O)oc12	0.52
COc1ccc(C2C(C(=O)N(C)C3CCCCC3)c3ccccc3C(=O)N2Cc2ccc(F)cc2)cc1 (configuration not stated)	-0.62
CCC1CCCCN1C(=O)CSc1n[nH]c(C)c1[N+](=O)[O-] (configuration not stated)	-0.28
CC1=C(C(=O)OC(C)C)C(c2ccc(C(F)(F)F)cc2)NC(=O)N1 (configuration not stated)	-0.48
O=C(Nc1ccc2c(c1)OCCO2)c1cc(-c2ccc(Cl)s2)nc2ccccc12	0.22
CCCOC(=O)c1[nH]c2c(c1C)C(=O)CC(C)(C)C2	-0.62
O=C(CCC1CCCC1)N1CCN(S(=O)(=O)c2ccccc2[N+](=O)[O-])CC1	-0.17
CCOC(=O)C1=C(C)Nc2sc(C(=O)c3ccc(C)cc3)c(N)c2C1c1ccc(C(=O)OC)cc1 (configuration not stated)	0
COc1cc2c(cc1NC(=O)c1ccc(OC)c([N+](=O)[O-])c1)oc1ccccc12	0.74
CCOc1ccc(C(=O)Nc2ccc(O)c(-c3nc4cc(CC)ccc4o3)c2)cc1	0.85
CC(=O)OC1CC2(C)C(=O)CCC2C2CCc3cc(O)ccc3C12 (configuration not stated)	-0.18
COc1ccc(C(=O)N=c2sc3ccccc3n2C)cc1OC	-0.24

SMILES	Measles inh
COc1ccccc1NS(=O)(=O)c1ccc(Cl)c(C(=O)Nc2cccc(C(=O)O)c2)c1	0.26
COC(=O)C1=C(C)N(C)C(=O)NC1c1cccc(OC)c1OC (configuration not stated)	2.7
COc1ccccc1-n1c(C)nc2cc(C(=O)O)ccc21	-0.21
CCOC(=O)C1CCN(c2ccc([N+](=O)[O-])cc2C(=O)Nc2ccc(OC(F)(F)F)cc2)CC1	0.86
CN(Cc1ccccc1)S(=O)(=O)c1ccc2[nH]c(=O)c(=O)[nH]c2c1	-0.66
COc1ccccc1C(=O)NCC(=O)n1nc(C)cc1C	1
Cc1nc(-c2cc3cc(Cl)ccc3oc2=O)cc2c1c(=O)oc1ccc(Cl)cc12	0.34
O=C(Nc1cccc(-c2nc3ccccc3o2)c1)c1cccc(I)c1	-0.66
CC(C)CSc1ncnc2c1sc1nc3c(cc12)COC(C)(C)C3	-1.8
COc1cc2c(cc1NC(=O)c1ccccc1F)oc1ccccc12	-0.01
Cc1cc(C)c(C#N)c(SCc2cn3c(C)cccc3n2)n1	0.88
Cc1sc2ncn(CC(=O)NCc3ccc(F)cc3)c(=O)c2c1S(=O)(=O)N1CC(C)CC(C)C1 (configuration not stated)	-0.02
Cc1cccc(C(C)C)c1NC(=O)c1ccco1	1.8
Cc1c(Cl)cccc1NC(=O)CSc1nc2ccc(N)cc2s1	0.25
COc1cccc(-n2c(=O)c3c(C)c(C)sc3n(Cc3ccc([N+](=O)[O-])cc3)c2=O)c1	-0.3

The closing seven records of the part before come first, to join the parts.
SMILES	Measles inh
CC(C)CSc1ncnc2c1sc1nc3c(cc12)COC(C)(C)C3	-1.8
COc1cc2c(cc1NC(=O)c1ccccc1F)oc1ccccc12	-0.01
Cc1cc(C)c(C#N)c(SCc2cn3c(C)cccc3n2)n1	0.88
Cc1sc2ncn(CC(=O)NCc3ccc(F)cc3)c(=O)c2c1S(=O)(=O)N1CC(C)CC(C)C1 (configuration not stated)	-0.02
Cc1cccc(C(C)C)c1NC(=O)c1ccco1	1.8
Cc1c(Cl)cccc1NC(=O)CSc1nc2ccc(N)cc2s1	0.25
COc1cccc(-n2c(=O)c3c(C)c(C)sc3n(Cc3ccc([N+](=O)[O-])cc3)c2=O)c1	-0.3
CCOc1ccc(NC(=O)C2CCN(C(=O)c3ccccc3)CC2)cc1	-0.71
CCCn1c(=O)c(C(=O)Nc2nc3ccc(Cl)cc3s2)c(O)c2ccccc21	-0.55
COc1ccc(CNC(=O)c2cc(=O)[nH]c3ccc(S(=O)(=O)N4CCCC4)cc23)c(OC)c1	2.1
CC(C)(C)c1ccc(C(=O)N2N=C(c3ccc([N+](=O)[O-])cc3)CC2(O)C(F)(F)F)cc1 (configuration not stated)	-0.15
COCCNC(=O)C1CC(=O)N(c2ccc(OC)cc2)C1c1ccc(OC)cc1 (configuration not stated)	0.56
COC(=O)c1cn(C)c2ccc(S(=O)(=O)N3CC(C)CC(C)C3)cc2c1=O (configuration not stated)	1.1
CCCCSc1nnc2c(n1)OC(c1ccc(C(=O)OC)cc1)Nc1ccccc1-2 (configuration not stated)	0.19
Cc1cc(C)nc(SCC(=O)NCc2cc(-c3nn(C)c(=O)c4ccccc34)ccc2C)n1	1.9
Cc1ccc(C2C(=O)N(C3CCCCCC3)CC(=O)N2CCC2=CCCCC2)cc1 (configuration not stated)	0.04
CCN(CCCNC(=O)C1c2ccccc2C(=O)N(C)C1c1cccs1)c1cccc(C)c1 (configuration not stated)	-0.65
CCOC(=O)C1=C(C)NC(=O)NC1c1ccccc1OC(C)C (configuration not stated)	0.7
CC1CCCCN1S(=O)(=O)c1ccc2[nH]c(=O)cc(C(=O)NCCN3CCCCCC3)c2c1 (configuration not stated)	-0.48
CC1=C(C(=O)OCCCc2ccccc2)C(c2ccccc2F)CC(=O)N1 (configuration not stated)	-0.26
Cc1c(C(=O)NCCC(C)C)oc2ccc(S(=O)(=O)N3CCOCC3)cc12	0.76
COc1cccc(-c2nn(C)c3sc(C(=O)Nc4ccc(C)c(F)c4)cc23)c1	-0.62

SMILES	Measles inh
Cc1ccccc1C1OC2(C(=O)c3ccccc3C2=O)C2C(=O)N(C3CCCCC3)C(=O)C12 (configuration not stated)	0.03
O=C(NCCCN1CCOCC1)c1cccc(-n2c(=S)[nH]c3cc(Cl)ccc3c2=O)c1	-0.04
Cc1sc(NC(=O)c2cccc([N+](=O)[O-])c2)c(C#N)c1C	-0.1
CN(C)c1ccc(C2Nc3ccccc3-c3nnc(SCc4ccccc4)nc3O2)cc1 (configuration not stated)	0.68
COc1ccc(N=Cc2c(C)c(Cl)c(C)c([N+](=O)[O-])c2O)cc1Cl	0.88
CC1=C(C(=O)Nc2ccc(Br)cn2)C(c2ccccc2)C2=C(CCCC2=O)N1 (configuration not stated)	-1.5
O=C(Nc1ccccc1C(=O)N1CCOCC1)c1cccc(S(=O)(=O)N2CCOCC2)c1	-0.05
CC(=O)Nc1ccc(C(=O)NCC(C)C)cc1	1.3
CCOc1ccccc1N1CCN(C(=O)c2cccc(F)c2)CC1	-0.68
COc1ccccc1NC(=O)c1ccc2c(c1)C(=O)N(c1ccc(Br)cc1)C2=O	0.08
COc1cccc(OCC(O)CN2CC(C)OC(C)C2)c1 (configuration not stated)	0.88
Cc1ccccc1Nc1cc(C(=O)NCc2cccnc2)c2ccccc2n1	-0.74
CC(=O)N1N=C(c2ccco2)CC1c1cc2cc(C)ccc2[nH]c1=O (configuration not stated)	-0.87
O=C(NCc1ccccc1)c1ccc2c(=O)n(-c3ccccc3)c(=S)[nH]c2c1	0.39
COc1ccc(S(=O)(=O)N2CCSC2c2cc(OC)ccc2OC)cc1 (configuration not stated)	-2.1

Random excerpt: three compounds from above.
SMILES	Measles inh
O=C(Nc1ccccc1C(=O)N1CCOCC1)c1cccc(S(=O)(=O)N2CCOCC2)c1	-0.05
Cc1sc(NC(=O)c2cccc([N+](=O)[O-])c2)c(C#N)c1C	-0.1
O=C(NCc1ccccc1)c1ccc2c(=O)n(-c3ccccc3)c(=S)[nH]c2c1	0.39

Other records:
SMILES	Measles inh
FC(F)(F)c1c(Cl)nc(N2CCCCCC2)c(Cl)c1Cl	1.5
CCCOc1ccc(C2CC(=O)Nc3cc4c(cc32)OCO4)cc1 (configuration not stated)	0.49
Cc1sc2ncn(CC(=O)Nc3ccc(C(C)C)cc3)c(=O)c2c1S(=O)(=O)N1CCC(C)CC1	-0.26
CC(=O)N1c2c(cc(Br)cc2S(=O)(=O)N2CCCC2)CC1C (configuration not stated)	-0.56
CCn1cc(C(=O)N2CCC(Cc3ccccc3)CC2)c2cc(OC)c(OC)cc2c1=O	-0.29
O=C(O)CCC(=O)N1N=C(c2ccc(Cl)cc2)CC1c1cccs1 (configuration not stated)	2.4
COc1ccc(-n2cnc3ccccc3c2=O)cc1	-0.66
CCC1CCCCN1C(=O)c1nn(-c2ccc(OC)cc2)c(=O)c2ccccc12 (configuration not stated)	2
CC1=C(C(=O)OCCCCl)C(c2ccccc2)NC(=O)N1 (configuration not stated)	1.3
CCOC(=O)C1=C(C)NC(C)=C(C(=O)OCC)C1c1cn(-c2ccccc2)nc1-c1ccccc1	-1.4
O=C(C1=C(Nc2ccccc2)C(=O)N(c2ccccc2)C1c1ccccc1F)c1ccccc1 (configuration not stated)	0.08
CC(=O)Nc1ccc(S(=O)(=O)NCC2CCC(C(=O)N3CCN(c4cc(C)ccc4C)CC3)CC2)cc1 (configuration not stated)	-0.49
Cc1ccnc(Nc2nc(-c3cccnc3)cs2)c1	-0.44
Cc1ccc(CCNC(=O)c2ccc(CSCc3ccccc3Cl)o2)cc1	0.52
CCc1ccc(C(=O)Nc2ccc(C(=O)O)cc2)cc1	0.07

SMILES	Measles inh
COc1cc2c(cc1OC)C(COc1ccc3c(C)cc(=O)oc3c1)N(C(=O)c1ccc(Cl)cc1)CC2 (configuration not stated)	-1.6
Cc1ccc(N2CCCC2=O)cc1	-0.28
CCCCNC(=O)c1ccc2c(c1)N(Cc1ccc(Cl)cc1)C(=O)c1ccccc1S2	-0.05
CC1=C(C(=O)Nc2ccc(C)cc2)C(c2ccc(C)cc2)NC(=O)N1 (configuration not stated)	-0.23
C=CCOC(=O)C1=C(C)N=C2SCCC(=O)N2C1c1ccc(Br)cc1 (configuration not stated)	-1.1
Cc1cc(C)cc(N2C(=O)CSC23C(=O)Nc2ccccc23)c1 (configuration not stated)	-1.3
Cc1ccc(NS(=O)(=O)c2cccc3nsnc23)c(Cl)c1	-0.7
Cc1sc2nc3ccc(N4CCCCC4)nn3c(=O)c2c1C	-0.56
COc1ccc(-n2cc3c(c2-c2ccc(C)cc2)c(=O)n(C)c(=O)n3C)cc1	0.64
COc1ccc(NC(=O)CSc2nc3ccc([N+](=O)[O-])cc3[nH]2)c(OC)c1	0.14
O=C(Cn1c(=O)n(CCc2ccccc2)c(=O)c2ccccc21)c1ccccc1	-0.06
Cc1ccc(-c2nnc(Nc3ccc(F)cc3)c3ccccc23)cc1S(=O)(=O)NC(C)(C)C	0.07
CC1CCCC(C)N1CCNC(=O)CN1N=C(c2ccccc2)CCC1=O (configuration not stated)	-0.8
COc1ccc(OC)c(NC(=O)c2oc(=O)c3ccccc3c2-c2ccccc2)c1	-0.88
CS(=O)(=O)N(CCC#N)Cc1ccco1	-0.91

SMILES	Measles inh
OC(CN1CCN(c2ccc(Cl)cc2)CC1)Cn1c2ccccc2c2ccccc21 (configuration not stated)	-0.11
Cc1ccc(Nc2c(-c3ccc(O)cc3)nc3cccc(C)n23)cc1	-0.15
CCN(CC)c1ccc(C2C3=C(CCCC3=O)Nc3ccc4ccccc4c32)cc1 (configuration not stated)	-0.76
CCc1ccc(C2C=C(c3ccc(Cl)cc3)Nc3nnnn32)cc1 (configuration not stated)	-0.19
COc1ccc(-n2nc(C(=O)NCC(=O)Nc3cccc(C(F)(F)F)c3)c3ccccc3c2=O)cc1Cl	-0.34
Clc1ccc(C2=Nn3c(nnc3-c3ccc(Br)cc3)SC2)cc1	-0.59
CCOc1ccc(-c2cn(-c3ccc(OC)cc3)c(SC)n2)cc1	-0.31
CC(=O)N1c2c(cc(Br)cc2S(=O)(=O)Nc2ccc(C)cc2Br)CC1C (configuration not stated)	1.6
CCCc1cc(=O)oc2cc(OCc3cccc(Cl)c3)ccc12	-0.16
Cc1sc2ncn(CC(=O)N3CCCC3)c(=O)c2c1S(=O)(=O)N1CCC(C)CC1	-0.51
COC(=O)C1=C(C)N(C)C(=O)NC1c1ccccc1 (configuration not stated)	-0.36
CCOC(=O)c1c(NC(=O)c2cccnc2)sc2c1CCCC2	0.35
O=[N+]([O-])c1cccc(-c2nnco2)c1	1
CC1CCN(c2ncnc3c2cnn3-c2ccccc2)CC1	-0.57

Screening results deposited in PubChem by Emory University Molecular Libraries Screening Center.
